MgrA-DNA mod – alters Staphylococcus aureus MgrA binding to DNA; fluorescence polarization; inhibition, %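 (about 10 µg/mL by stock and volumes)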; hit rate 0.13% among 84,000;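 active = above 50% in either of two replicates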;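 also: 0% = protein plus DNA without compound and 100% = DNA alone without protein; higher means less MgrA bound to DNA so lower polarization; one replicate is shown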
Sa helicase inh – S. aureus DNA helicase inhibition | purified S. aureus helicase, fluorescence unwinding assay; about half of the hits fall short of the stated cut | inhibition, %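 (tested at about 80 µM)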 | hit rate 0.05% among 120,000 | AID 485395;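 active = both duplicates at 50% or more, or one of them with a favoured structure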;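 also: 0% = mean of negative control wells and 100% = mean of positive control wells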
The depositor's hits bear a star; . = not tested or not shown; & = joins results of further samples. Some of the compounds tested; count on the stated rates, not on these rows.

MgrA-DNA mod | Sa helicase inh | SMILES
. | -116 | C=CCN1C(=O)/C(=C/c2c(N3CCNC(=O)C3CC(=O)OCC)nc3ccccn3c2=O)SC1=S (stereo unspecified)
-0.6 | 2 | Cc1ccc(-c2cc(C(=O)N3CCCCC3)c3ccccc3n2)cc1C
. | 3 | Cc1ccc(Oc2ccsc2C=C(C#N)C#N)cc1
. | -1 | COC(=O)c1ccc(/C=C/C(=O)OCC#N)cc1
. | -27 | COC(=O)c1sc2nc(SCC(=O)N3CCCc4ccccc43)n(N)c(=O)c2c1C
0.3 | . | CCOC(=O)c1cc(=O)c2ccc(OC(=O)c3cccnc3Oc3ccccc3)cc2o1
. | 2 | COc1ccc(S(=O)(=O)NCC(c2cccnc2)N2CCN(c3ccc(F)cc3)CC2)cc1C (stereo unspecified)
. | 6 | CC(=O)OCCOc1nc(N(C)C)nc(N(C)C)n1
. | -4 | CC1(C)CC(=O)C(C=Nc2ccc(F)c(F)c2)=C(O)C1
. | 5 | O=C(O)CCCNCc1ccc(Cl)cc1
. | 7 | CC(C)C(=O)Nc1nc2nc(-c3ccccc3)cc(=O)n2[nH]1
-2.9 | . | COc1ccc(OCC(O)CNS(=O)(=O)c2cc(Cl)sc2Cl)cc1 (stereo unspecified)
5.9 | 9 | CC(/C=N/NC(=O)Cc1cccn1C)=C\c1ccco1
. | -8 | COc1cc2c(cc1NC(=O)C(C)N1CCC(C)CC1)oc1ccccc12 (stereo unspecified)
-0.3&0.7 | . | OC(CCN1CCCC1)(c1ccccc1)C1CCCCC1 (stereo unspecified)
. | -7 | O=C(O)/C=C\C(=O)Nc1ccc2c(c1)OCCO2
5.7 | 19 | CN(C)S(=O)(=O)Nc1ccc2c(c1)oc1ccccc12
-0.6 | . | CC1SC(c2cccnc2)N(c2ccc(Cl)cc2)C1=O (stereo unspecified)
. | -7 | CNC(C)c1ccccc1 (stereo unspecified)
. | 27 | CN(C)S(=O)(=O)c1ccc(C(=O)OCC2COC(C)(C)O2)cc1 (stereo unspecified)
. | -6 | O=C(/C=C/c1ccccc1)OCC(=O)c1ccc[nH]1
. | 33 | N#CCSc1nc(-c2cccs2)cc(-c2cccs2)c1C#N
-0.5 | 3 | CNC(=O)Cn1cc2c(n1)CCC(C)C2 (stereo unspecified)
2.3 | 13 | COC(=O)c1ccc(OCC(O)Cn2c(C)[n+](C)c3ccccc32)cc1 (stereo unspecified)
-1.5 | 12 | CNC(=O)CSc1nc2ccccc2c(=O)n1C
. | -9 | Cc1c(C(=O)OCC(=O)c2ccc(Cl)s2)sc2nc3n(c(=O)c12)CCC3
-3.0 | . | O=C(O)CSc1cc(C(F)(F)F)nc2ccccc12
-0.3 | 15 | Cc1ccc(Cl)cc1N1CCN(C(=O)CCNS(=O)(=O)c2ccc3c(c2)CCC(=O)N3)CC1
1.2 | . | CCOc1ccccc1NC(=O)C1COc2ccccc2O1 (stereo unspecified)
-0.9 | 7 | CC(C)(c1ccccc1)c1ccc(OCCN2CCOCC2)cc1
5.8 | . | Cc1[nH]c(-c2ccccn2)nc(=S)c1Cl
1.1 | 6 | CCS(=O)(=O)N1CCC(NC(=O)C(Cc2ccc(OC)c(OC)c2)NC(C)=O)CC1 (stereo unspecified)
. | 9 | COc1ccc(-c2[nH]c(SC)nc(=S)c2C#N)cc1
-1.4 | . | Cc1nc(-c2cccnc2)[nH]c(=O)c1CC1CC1
-0.2 | 9 | CC/C(Cc1ccccc1)=N/NS(C)(=O)=O
-0.5 | 17 | CC(C)C(=O)N=c1scc(-c2ccccc2)n1-c1ccccc1Cl
-0.3 | 14 | O=C(NCc1cccs1)c1cnc2ccccn2c1=O
. | 1 | O=c1[nH]c(=O)c2[nH]cnc2[nH]1
. | 16 | NC(=S)n1[nH]c(-c2ccccc2)c(N=Nc2nccs2)c1=O
. | -2 | CCN(CC)C(=O)CSc1nnc2sc3ccccc3n12
. | -20 | CS(=O)(=O)c1ccc(N)cc1
. | -36 | CCc1ccc(NS(=O)(=O)c2ccc3[nH]cc(C(=O)NCc4ccco4)c(=O)c3c2)cc1
-2.0 | -23 | COc1ccccc1C(=O)OCC(=O)Nc1ccccc1
. | -32 | CC(C)Oc1ccc(/C=C/C(=O)Nc2noc3ccccc23)cc1
. | 14 | N#CCCn1cc(/C=N/NC(N)=S)c(-c2ccccc2)n1
-0.3 | 9 | O=C(NC1CCCCC1)C1OC(c2ccccc2)OC1C(=O)NC1CCCCC1 (stereo unspecified)
5.3 | 3 | Cc1ccc(CNC(=O)Cn2c(SCc3ccccc3F)nc3cccnc32)cc1
0.0 | 7 | COc1ccc(C(=O)N=C2CCC(C#N)=C3c4cc(OC)c(OC)cc4CCN23)cc1
0.7 | . | CCOC(=O)c1ccc(N=C2SC(C(=O)Nc3ccc(F)cc3)CC(=O)N2C)cc1 (stereo unspecified)
3.2 | 11 | CC1CN(C(=S)NC(=O)c2ccc(Cl)cc2)CC(C)O1 (stereo unspecified)
-2.1 | . | O=C(c1ccccc1)C1CCN(C(=O)Nc2ccc(Cl)cc2)CC1
1.6 | 10 | O=C1CS/C(=N\C(=O)N2c3ccccc3Sc3ccccc32)N1
. | 6 | COC(=O)C(O)(C1=C(N2CCOCC2)/C(=C\c2ccccc2)CC1)C(F)(F)F (stereo unspecified)
. | 3 | COc1cccc2cc(C(=O)OCCN3CCOCC3)c(=O)oc12
-0.5 | 2 | O=C1CCCN1C(=O)CCC(=O)N1CCCC1=O
-6.0 | 5 | Cc1ccc(NS(=O)(=O)c2cc(C(=O)O)ccc2Br)cc1
-0.2 | -3 | Cc1cc(C)nc(SCCC(=O)Nc2ccccc2)n1
-0.5 | . | CCC12CC3CC(C1)CC(C(=O)O)(C3)C2
0.2 | 7 | CCCn1c(SCC(=O)N(C2CCCCC2)C2CCCCC2)nc2c1c(=O)n(C)c(=O)n2C
1.1 | 0 | Cn1cc(S(=O)(=O)N2CCCC2)cc1C(=O)N1CCN(c2ccccc2)CC1

(cont.)
MgrA-DNA mod | Sa helicase inh | SMILES
-1.1 | -6 | O=C(O)C1CCN(C(=O)N2CCOc3ccccc32)CC1
. | -9 | Cc1nc(N(C)C)c2sc(=S)n(C)c2n1
. | -29 | Cc1ccc(-c2noc(CCCC(=O)N3CCCCC3)n2)cc1
. | -12 | Cc1ccccc1-c1nc(CN2CCC(C(=O)NCc3ccccc3)CC2)c(C)o1
-0.3 | . | C/C(=N\Nc1ccccc1)c1cc2cc(Br)ccc2oc1=O
-1.0 | . | Cn1c(SCc2ccc(OC(F)(F)F)cc2)nnc1-c1ccc2ncccc2c1
. | -3 | CCS(=O)(=O)Nc1cccc(-c2cn3ccccc3n2)c1
0.7 | -8 | COCCn1c(N)cc(=O)[nH]c1=S
0.2 | -11 | CS(=O)(=O)c1ccc2nc(NC(=O)Oc3ccccc3)sc2c1
-2.8 | . | CCC(=O)N1c2cc(Cl)ccc2-n2c(nn(C(=O)CC)c2=O)N1C(=O)CC
. | 14 | O=C(CCS(=O)(=O)c1ccccc1)Nc1cccc(-c2nc3ccccc3o2)c1
. | 31 | COC(=O)N=Nc1c(O)[nH]c2ccc(Br)cc12
6.6 | 12 | COC(=O)c1c(NC(=O)C2CCCC2)sc2c1CCCC2
2.2 | 7 | O=C(CS(=O)(=O)c1ccccc1)Nc1ccccc1O
. | -11 | CCN(c1ccccc1)S(=O)(=O)c1ccc(C(=O)NCCCN2CCCC2=O)cc1
-0.9 | 0 | CCOC(=O)C1CCCN(C(=O)Cc2ccc(OC)c(OC)c2)C1 (stereo unspecified)
1.6 | 13 | COc1ccc(NC(=O)c2ccc3c(=O)n(Cc4ccco4)c(=S)[nH]c3c2)cc1OC
-0.6 | . | O=C(/C=C/c1cccs1)Nc1ccc(N2CCOCC2)c(C(=O)O)c1
. | 8 | O=C1Nc2ccccc2C1(C(F)(F)F)C(F)(F)F
. | 6 | O=C1CCC(C(=O)N2CCN(c3ccc(F)cc3)CC2)=NN1

Quoted at random: four entries already listed, in no set order.
MgrA-DNA mod | Sa helicase inh | SMILES
. | 6 | O=C1CCC(C(=O)N2CCN(c3ccc(F)cc3)CC2)=NN1
-0.9 | 7 | CC(C)(c1ccccc1)c1ccc(OCCN2CCOCC2)cc1
5.8 | . | Cc1[nH]c(-c2ccccn2)nc(=S)c1Cl
-0.2 | -3 | Cc1cc(C)nc(SCCC(=O)Nc2ccccc2)n1

Sorted by molecular weight (low to high): some entries from above.
MgrA-DNA mod | Sa helicase inh | SMILES
. | -29 | Cc1ccc(-c2noc(CCCC(=O)N3CCCCC3)n2)cc1
. | 14 | O=C(CCS(=O)(=O)c1ccccc1)Nc1cccc(-c2nc3ccccc3o2)c1
-1.0 | . | Cn1c(SCc2ccc(OC(F)(F)F)cc2)nnc1-c1ccc2ncccc2c1

(next part)
MgrA-DNA mod | Sa helicase inh | SMILES
0.0 | -13 | CCC(C)N1Cc2ccccc2N(CC)C1c1ccccc1F (stereo unspecified)
0.6 | . | O=C(Cn1cnc([N+](=O)[O-])n1)Nc1ccc(Cl)cc1Cl
-1.6 | . | CS(=O)c1noc(-c2ccc(Cl)cc2)c1C#N (stereo unspecified)
0.8 | . | O=C(O)CN1C(=O)/C(=C\c2cccc(OCc3ccc(Cl)cc3Cl)c2)SC1=S
0.9 | -14 | COC(=O)c1c(N)oc2c(-c3cccc(C(F)(F)F)c3)c3c(C(=O)OC)c(N)oc3cc12
-1.2 | 9 | C=CCNc1nc(NCc2ccco2)nc(OCC)n1
-1.5 | . | CCOC(=O)/C(C#N)=C/Nc1cc(C)ccn1
. | -10 | CN(C(=O)Cn1ncc2c1-c1ccccc1OC2)c1ccccc1F
. | -4 | CC(Oc1ccc(C(C)(C)C)cc1)C(=O)O (stereo unspecified)
. | 24 | Cc1ccc(S(=O)(=O)NCCc2nnc3ccc(SCC(N)=O)nn23)cc1
2.3 | . | N#Cc1cc2c([nH]c1=S)CCCC2
. | 11 | NC(=O)COc1coc(CN2CCN(c3ccccc3)CC2)cc1=O
-2.1 | . | O=C(NC1CCN(Cc2ccccc2)CC1)c1ccco1
0.0 | . | O=S(=O)(CCN1CCOCC1)c1ccccc1
. | -8 | CN1C(=O)CC(c2ccccc2)Sc2ccccc21 (stereo unspecified)
. | -8 | Cn1c(SC(C#N)Cc2ccccc2)nnc1-c1ccc(C(C)(C)C)cc1 (stereo unspecified)
6.8 | 4 | CCOC(=O)N1CC=C2C(C#N)=C(N)C(C#N)(C#N)C(c3ccc(CC)cc3)C2C1 (stereo unspecified)
-0.6 | 5 | COc1cccc2cc(C(=O)NCCc3c(C)[nH]c4ccc(OC(F)(F)F)cc34)c(=O)oc12
. | 6 | O=C1CCCN1CC1CCCNC1 (stereo unspecified)
1.8 | 12 | C/C(CCc1ccc2c(c1)OCO2)=N\N1C(=N)SC(C(=O)Nc2ccc(C(=O)O)cc2)CC1=O (stereo unspecified)

Profiles, looked up by structure.
CC1(C)CC(=O)C(C=Nc2ccc(F)c(F)c2)=C(O)C1 across the screens: MgrA-DNA mod: .; Sa helicase inh: -4
CC(C)C(=O)Nc1nc2nc(-c3ccccc3)cc(=O)n2[nH]1 across the screens: MgrA-DNA mod: .; Sa helicase inh: 7

Following part:
MgrA-DNA mod | Sa helicase inh | SMILES
0.5 | 10 | CCN/C(C)=C/c1nsc(Nc2ccc(Cl)c(Cl)c2)n1
. | 9 | O=c1c2cnc(NCc3cccnc3)nc2ccn1Cc1cccnc1
-0.3 | 5 | O=C(OCC1CC(c2ccccc2)=NO1)c1ccc(Cl)cc1 (stereo unspecified)
0.1 | 10 | CCOC(=O)N1CCC(N2C(=O)c3ccc(C(=O)O)cc3C2=O)CC1
0.1 | . | Cc1ccc(-c2csc(-c3ccccc3)n2)cc1
-0.3 | 1 | CCCc1cc(N2CCN(c3ccccc3)CC2)n2c(nc3ccccc32)c1C#N
-3.0 | -2 | O=C(O)c1n[nH]c2c1CCCCC2
. | 35 | O=C(CCn1c(=O)c2cccn2c2ccc(F)cc21)NCc1ccccc1
-0.5 | 3 | CN(C(=S)SCc1ccccc1)c1ccccc1
-0.3 | -4 | COc1ccccc1N1CCN(S(=O)(=O)c2c(C)ccc3nsnc23)CC1
. | 15 | Cc1ccc(/C=N/N2C(C)CCCC2C)cc1 (stereo unspecified)
. | -17 | Cn1c(Cc2cccs2)nnc1SCc1ccc(C(=O)Nc2ccccc2)cc1
. | 21 | COc1ccc(N2C(=O)C3SC(N)=C(C#N)C(c4ccco4)C3C2=O)cc1 (stereo unspecified)
. | 3 | CNC(=S)N(CCCn1ccnc1)Cc1c(F)cccc1Cl
. | -4 | O=C(COC(=O)C1CC1)NCc1ccccc1
-1.7 | . | CCOC(=O)C1=C(C)OC(N)=C(C#N)C1c1c(Cl)cccc1Cl (stereo unspecified)
. | 17 | C=CCN1C(=O)C(C(=O)NC(C)(C)C)C2CC1(C)Oc1ccccc12 (stereo unspecified)
. | -12 | CSc1cccc(NC2=NC3CS(=O)(=O)CC3S2)c1 (stereo unspecified)
. | 7 | O=S(=O)(Cc1noc(-c2ccccc2Cl)n1)Cc1ccco1
. | 4 | COc1ccc(C(=O)c2cnc3ccc(F)cc3c2N2CCN(c3ccccc3OC)CC2)cc1
-0.3 | 2 | CC1OC(C)C2Cc3ccccc3C2O1 (stereo unspecified)
0.0 | 3 | CC(=O)N(C)c1nc(-c2ccccc2)cs1
. | 11 | COc1ccc(-c2nnc3c4ccccc4c(C)nn23)cc1S(=O)(=O)NCc1cccnc1
. | -10 | CCOC(=O)c1ccc(NC(=O)Cn2cnc3c(oc4ccccc43)c2=O)cc1
. | -12 | CC1CCCC(C)N1C(=O)COC(=O)c1c2c(nc3ccccc13)CCCC2 (stereo unspecified)
. | 13 | CCOc1ccc(-n2c(Cc3cc(=O)[nH]c(=O)[nH]3)nnc2SCC(=O)N2CCCC2)cc1
. | 16 | O=C(COc1ccccc1)Nc1ncc(Cc2ccccc2)s1
